Screens from PubChem BioAssay.
TRPML1 agonist – human mucolipin-1 channel agonism; Q9GZU1; TRPML1-expressing cells, Ca2+ dye fluorescence, FDSS; host cell line not named in the record; reference of the full effect not given here; activation, % (concentration not given with the values); 410,000 tested, 0.12% active; AID 624414; in the data active = activation above about 50%; inconclusive = about 30% to 50%; inactive = below about 30%; further: 0% is about no effect; the text of the record puts the active cut at 80%
Target sequence (Q9GZU1 whole entry, looked up): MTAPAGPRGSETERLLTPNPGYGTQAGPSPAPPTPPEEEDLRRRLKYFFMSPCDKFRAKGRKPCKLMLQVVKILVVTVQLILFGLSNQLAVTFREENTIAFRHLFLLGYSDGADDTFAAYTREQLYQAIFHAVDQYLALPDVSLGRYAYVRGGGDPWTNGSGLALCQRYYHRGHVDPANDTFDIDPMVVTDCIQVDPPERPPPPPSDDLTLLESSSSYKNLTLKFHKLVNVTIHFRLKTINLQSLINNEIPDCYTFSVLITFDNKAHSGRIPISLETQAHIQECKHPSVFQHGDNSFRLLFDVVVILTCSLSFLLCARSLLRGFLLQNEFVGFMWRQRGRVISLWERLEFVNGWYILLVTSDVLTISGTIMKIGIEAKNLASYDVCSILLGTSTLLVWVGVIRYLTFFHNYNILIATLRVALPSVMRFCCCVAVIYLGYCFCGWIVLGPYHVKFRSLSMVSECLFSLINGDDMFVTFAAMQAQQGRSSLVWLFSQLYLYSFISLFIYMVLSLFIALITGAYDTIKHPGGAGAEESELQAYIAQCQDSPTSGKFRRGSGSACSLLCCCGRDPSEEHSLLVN
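Cells: TRPML1-DL, 1X Tet inducer, ~16 h at 37 degrees C/5% CO2. Dye: ABD Ca8 no-wash + quencher, 45-90 min RT. Read: 10 s baseline, compound add, 110 s agonist phase; 54-4 EC80 (4uM final), 110 s antagonist phase.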
TRPML1 blocker – human mucolipin-1 channel inhibition. activity change, negative = inhibition, % (concentration not given with the values). AID 624415. 390,000 tested, 0.02% active. TRPML1-inducible cells, Ca2+ dye fluorescence, FDSS; active compounds read low; inhibition of EC80 agonist-evoked calcium signal; in the data active means activity change below about -50%; inconclusive means about -30% to -50%; inactive means above about -30%;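 further: stimulus is agonist 54-4 at its EC80 concentration; on the % scale 0 is the no-effect control and ±100 the full control effect; the text of the record puts the active cut at -80%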
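Calcium fluorescence in TRPML1-DL cells induced overnight with Tet: a 110 s read after compound pin addition, then a 110 s antagonist read after challenge with 54-4 at 4 uM final (EC80).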
Numbers without * were called inactive. This is a subset (hit frequency here may not be typical).

SMILES	TRPML1 agonist	TRPML1 blocker
CCCC(=O)N(c1ccc2oc3c(c2c1)CCCC3)S(=O)(=O)c1ccc(CC)cc1	63.8*	-24.9
COCCCNC(=O)CC(c1cc(OC)c(OC)c(OC)c1)N1Cc2ccccc2C1=O (stereo not given)	0.1	-5.5
CCc1ccc(NC(=O)Cn2cc(S(=O)(=O)c3ccc(F)cc3)c(=O)c3cc(OC)ccc32)cc1	0.4	15.7
CC1=C(c2ccc(C)cc2)S(=O)(=O)NC1=NCCCN1CCN(c2ccccc2F)CC1	-0.1	15.4
Cc1ccc(NC(=O)c2nnn(Cc3ccccc3)c2N)cc1C	-0.4	-1.7
COc1ccccc1C(=O)Nc1c(C(=O)N(C)Cc2ccccc2)sc2nc(C)c(Cl)c(C)c12	2.7	13.6
COc1ccc(-c2nc(N3CCN(S(=O)(=O)c4ccc(F)cc4)CC3)c3ccccc3n2)cc1	0.6	55.9
COc1cccc(C2C(C(=O)Nc3ccccc3)=C(C)Nc3nc(-c4ccccc4)nn32)c1OC (stereo not given)	-1.2	10.6
Cc1ccccc1OCC(=O)OCc1cc(=O)n2nc(C3CCCCC3)sc2n1	0.9	-8.0
Cc1ccc(NC(=O)CSc2nc3ccc(NC(=O)c4ccco4)cc3s2)c(C)c1	0.1	-6.2
O=C(Oc1ccc(Cl)cc1)c1cc(-c2ccc3c(c2)OCCO3)on1	-0.9	-17.7
CN1CCc2nc3sc(C(=O)Nc4ccccc4C(F)(F)F)c(N)c3cc2C1	1.9	3.7
CCOC(=O)C1CCN(C(=O)c2ccc3c(c2)sc2nc(-c4ccc(C)cc4)cn23)CC1	1.8	22.1
COc1ccc(CCNc2nc(SCc3ccc(Cl)cc3)nc3ccccc23)cc1OC	4.3	15.0
COc1ccc(NC(=O)C2CCCN(S(=O)(=O)c3c(C)[nH]c(=O)[nH]c3=O)C2)c(OC)c1 (stereo not given)	-0.7	-13.7
CCOC(=O)c1cccc(NC(=O)c2ccc3nc(Cc4ccccc4)oc3c2)c1	0.7	0.8
Cc1ccc(N(CC(=O)NCCc2ccc(Cl)cc2)S(=O)(=O)N(C)C)cc1	0.4	5.4
CCOC(=O)c1ccc(N2C(=O)c3n[nH]c(-c4cccs4)c3C2c2cccc(O)c2)cc1 (stereo not given)	0.2	11.5
CC1CCN(S(=O)(=O)c2ccc3nc(NCc4ccc(F)cc4)ccc3c2)CC1	4.8	38.1
CCc1ccc(NC(=O)Cn2c(=O)n(Cc3nc(C)no3)c(=O)c3cc4c(cc32)OCO4)cc1	0.4	-5.3
O=c1c(N2CCN(c3ccccc3)CC2)csc2ccc(Cl)cc12	0.8	13.6
CCC(=O)N1CCc2cc(S(=O)(=O)Nc3cc(C)ccc3OC)ccc21	-0.6	16.2
CCc1nn(CC(=O)Nc2c(C)cccc2C)c(=O)c2cc3sccc3n12	-0.4	16.6
Clc1ccccc1Nc1ncnc2c1nc1n2CCCCC1	-1.4	-4.9
Cc1ccc(C)c(NC(=O)N2CCC(N3CCN(Cc4ccc(F)cc4)C(=O)C3=O)CC2)c1	0.8	30.1
Cc1ccc(NC(=O)C2CCCN2S(=O)(=O)c2cccc3cccnc23)cc1 (stereo not given)	-0.6	-8.4
CCOC(=O)c1oc2c(c1C)-c1nn(Cc3c(F)cccc3Cl)cc1CC2	1.8	2.2
CCOCCCn1c(SCC(=O)Nc2ccc(CC)cc2)nc2ccccc2c1=O	2.0	-11.9
Cc1cc(C)cc(-n2c(SCC(=O)Nc3ccccc3F)nc3c(oc4ccccc43)c2=O)c1	1.8	-8.8
COc1ccc(-c2nc(S(=O)(=O)c3ccccc3)c(N3CCC(C)CC3)o2)cc1	-0.8	11.4
COc1ccc(S(=O)(=O)c2cc3cc(OC)ccc3oc2=O)cc1	-0.2	-0.4
O=C(Cn1c2ncccc2c(=O)n1-c1ccccc1)Nc1ccc(F)c(F)c1	0.9	41.4
COc1ccc(S(=O)(=O)Nc2ccc(-c3ccc(N4CCCC4)nn3)cc2)cc1F	-1.0	-4.6
COc1ccc(CCNC(=O)Cc2c(C)c3c(cc(C)c4c(C)coc43)oc2=O)cc1	0.3	-13.4
COc1cccc(NC(=O)Cn2c(=O)n(-c3ccc(Cl)cc3)c(=O)c3oc4ccccc4c32)c1	0.9	-1.9
CCOCCc1nn2c(=O)cc(COC(=O)c3ccco3)nc2s1	-0.3	-23.1
CCOc1ccc(-c2cc(OC(=O)c3ccc(F)cc3)c3c(C)oc(C)c3c(=O)c2)cc1	-0.2	-20.8
Cc1cc2oc(C(=O)Nc3ccc(S(=O)(=O)Nc4onc(C)c4C)cc3)cc(=O)c2cc1C	1.2	18.2
Oc1ccc(NCc2ccccc2OCc2ccc(Cl)cc2)cc1	-0.5	-10.6
CCOc1cc(C(=O)Nc2ccc(-c3nnc4n3CCCCC4)cc2)cc(OCC)c1OCC	0.0	16.2
CCc1cc(=O)oc2c(C)c3c(cc12)CN(CCc1ccccc1OC)CO3	0.5	13.5
Cc1cc(C)c(Cn2c(CCNC(=O)c3ccco3)nc3ccccc32)c(C)c1	1.9	16.8
Cc1c(C(=O)NC(C)c2ccccc2)sc2ncnc(N(C)C3CCCCC3)c12 (stereo not given)	1.7	0.8
Cc1ccc(NC(=O)c2oc3ccccc3c2NC(=O)c2cc3ccccc3o2)cc1	0.4	1.8
Cc1ccc(NS(=O)(=O)c2ccc3[nH]c4c(c3c2)CCCCC4)cc1	0.0	9.1
Cc1nn(C)c(C)c1CCNC(=O)Nc1ccccc1C(F)(F)F	1.3	-8.6
O=C(CC1NCCNC1=O)Nc1ccccc1F (stereo not given)	2.2	-18.5
CC(=O)N1CCc2c(sc3c2c(=O)n(CCc2ccccc2)c(=O)n3Cc2ccc(F)cc2)C1	-0.4	18.4
O=C(CSC1=Nc2ccccc2C2=NC(Cc3ccccc3)C(=O)N12)Nc1cccc(Cl)c1 (stereo not given)	0.0	32.1
CCOC(=O)c1cccc(NC(=O)C2COc3ccc(OC)cc3C2)c1 (stereo not given)	1.0	-17.9
O=C(CCC1N=C2c3ccccc3N=C(SCc3ccccc3Cl)N2C1=O)NCc1cccs1 (stereo not given)	-0.4	5.2
Cc1cc(SCC(=O)NCc2ccc(F)cc2)nc(=O)[nH]1	-0.4	17.2
C=COC(=O)N1CCN(/[N+]([O-])=N/Oc2ccc([N+](=O)[O-])cc2[N+](=O)[O-])CC1	1.2	6.0
O=C(Nc1ccc(C(F)(F)F)cc1)c1cc(S(=O)(=O)NC2CCCCC2)ccc1F	0.9	-3.6
CC(CCc1ccccc1)NC(=O)Cn1ncc2c3ccccc3n(Cc3cccc(Cl)c3)c2c1=O (stereo not given)	0.9	10.0
Cc1cc2nc(-c3ccc(OCc4ccccc4F)cc3)cc(C(F)(F)F)n2n1	-0.8	2.6
Cc1ccccc1NC(=O)CSC1=Nc2ccccc2C2=NC(CCC(=O)NCc3ccccc3)C(=O)N12 (stereo not given)	2.0	-13.6
COc1cc(Cn2c(=O)oc3ccc(C)cc32)ccc1OCCC(C)C	2.3	-14.1
CCCN(C(=O)c1cc2c(=O)n(CC)c3ccccc3c2s1)c1ccccc1F	-1.1	-1.4
CN1CCc2nc3sc(C(=O)c4ccc(F)cc4)c(N)c3cc2C1	5.0	4.6

(listing goes on)
SMILES	TRPML1 agonist	TRPML1 blocker
COc1cc2[nH]c(=O)n(Cc3ccc(C(=O)NCc4ccc(C)cc4)cc3)c(=O)c2cc1OC	-0.3	4.1
COc1ccc(N2CC(NC(=O)COc3ccc4ccccc4c3)CC2=O)cc1OC (stereo not given)	-0.9	-3.4
CCN1CCSc2ccc(C(=O)NCc3ccc(F)cc3)cc21	1.8	-15.5
Cc1ccc(-c2nn3c(=O)cc(CN4CCN(S(=O)(=O)c5ccc(Cl)cc5)CC4)nc3s2)cc1	1.2	2.0
Cc1cc(F)ccc1Nc1nc2ccc(Cl)cc2n2cnnc12	0.8	-8.2
COc1ccc(CCNC(=O)c2c(C)oc3nc(C)nc(N4CCOCC4)c23)cc1OC	-0.1	-0.5
CCc1ccccc1NC(=O)c1cn(C)c(=O)c2ccccc12	-0.5	9.5
O=S(=O)(NCC(c1ccco1)S(=O)(=O)c1cccs1)c1ccccc1 (stereo not given)	0.8	-17.2
COc1cccc(CNC(=O)C2CCN(Cc3cc4ccccc4n3Cc3ccc(C)cc3)CC2)c1	4.0	18.7
Cc1ccc(-c2noc(CSc3nnc(C)n3-c3ccc(F)cc3)n2)cc1	-0.4	-18.8
CCc1ccc(NC(=O)Cn2cnc3nc4c(cc3c2=O)CCCC4)cc1	2.9	-15.0
Cc1cc(C)cc(NC(=O)C2CCN(S(=O)(=O)c3cn(C)cn3)CC2)c1	0.6	10.7
Cc1nc2ccc(S(=O)(=O)N(CC(=O)Nc3ccc(Cl)cc3)Cc3ccccc3)cc2s1	3.2	13.8
CCOc1cc(C(=O)Nc2ccc(-c3nc4cc(Cl)ccc4o3)cc2)cc(OCC)c1OCC	1.8	-18.1
Cc1ccc(NC(=O)Nc2csc3c2CCCC3)c(C)c1	-0.3	26.7
CCCCNC(=O)CN1CCN(c2ccc(NC(=O)c3ccc(OC)cc3)cc2C(=O)O)CC1	0.1	10.0
CCc1ccccc1NC(=O)c1ccc2nc(C(C)C)oc2c1	4.5	-4.3
Cc1ccc(NC(=O)c2sc(-n3nc(C)c(Cc4ccc(Cl)cc4)c3C)nc2C)cc1	-0.2	-12.5
O=C(CCC1N=C2c3ccccc3N=C(SCc3ccc(F)cc3)N2C1=O)NCc1ccc(F)cc1 (stereo not given)	-0.8	5.5
COC(=O)c1ccc([C@@H]2Nc3c(OC)ccc(C)c3[C@@H]3C=CC[C@@H]32)cc1	-0.7	-2.2
CCOc1ccc(-n2c(SCC(N)=O)nc3c(oc4ccccc43)c2=O)cc1	-0.7	-5.4
CC1=C(C(=O)OC2CCCC2)C(c2c(Cl)cccc2Cl)CC(=O)N1 (stereo not given)	-0.4	-6.1
Cc1ccc(F)cc1NC(=O)Cn1c(=O)nc(-c2ccccc2F)c2cc(Cl)ccc21	1.2	-10.5
CCN(CC)S(=O)(=O)c1ccc(NC(=O)c2nn(C)c3c2CSc2ccccc2-3)cc1	0.2	19.0
COc1ccc(-c2nc(CCNC(=O)c3c(F)cccc3Cl)cs2)cc1	1.0	0.1
CCOc1ccc(CN(CCc2ccc3c(c2)OCO3)Cc2cc(OC)cc(OC)c2)cc1	-0.3	-9.3
CCOC(=O)N1CCc2c(sc3c2c(=O)n(-c2ccc(Cl)cc2)c(=O)n3CC(C)C)C1	-0.2	1.4
CCc1cc2c(cc3c(=O)n(CC(=O)NC4CCCCC4)ncn32)s1	0.2	-1.6
O=C(CSc1nnc(-c2ccncc2)n1-c1ccccc1)Nc1ccc(F)cc1	-1.5	-11.4
CCn1cc(C(=O)NCc2ccccc2Cl)c(=O)c2cc(S(=O)(=O)N3CCc4ccccc4C3)ccc21	-0.6	-18.3

Complete entries from above. Screens in order: TRPML1 agonist, TRPML1 blocker
Cc1ccc(F)cc1NC(=O)Cn1c(=O)nc(-c2ccccc2F)c2cc(Cl)ccc21 is listed as 1.2, -10.5
CCOc1ccc(-n2c(SCC(N)=O)nc3c(oc4ccccc43)c2=O)cc1 is listed as -0.7, -5.4
O=S(=O)(NCC(c1ccco1)S(=O)(=O)c1cccs1)c1ccccc1 (stereo not given) is listed as 0.8, -17.2

Following part.
SMILES	TRPML1 agonist	TRPML1 blocker
CCOc1ccc(CNC(=O)c2sc3nc(C)cc(C)c3c2-n2cccc2)cc1	4.6	-11.2
Cn1c(=O)n(C)c2cc(N3CCOCC3)c(NC(=O)c3c(F)cccc3F)cc21	-0.2	-8.1
Cc1ccc(-c2c(C(=O)N3CCN(c4cc(Cl)ccc4C)CC3)oc(=O)c3ccccc23)cc1	-0.8	-5.4
CCC(=O)N1CCc2cc(Br)cc(S(=O)(=O)CCC(=O)Nc3ccc(C)c(C)c3)c21	3.9	-18.1
O=C(CSc1nc2c([nH]c3ccccc32)c(=O)n1-c1ccc(Cl)cc1)NC1CCCCC1	1.3	-5.2
CC(C)c1nc2ccc(C(=O)NCCCN3CCN(c4cccc(Cl)c4)CC3)cc2o1	3.3	18.8
COC1(C(F)(F)F)NC(=O)N(c2ccc(F)cc2)C1=O (stereo not given)	-0.8	2.4
O=C(NCCC1=CCCCC1)c1ccc2c(=O)n3nc(Nc4ccccc4)sc3nc2c1	0.8	0.8
Cc1ccc(S(=O)(=O)N(CC(=O)Nc2ccc(Cl)cc2Cl)c2ccccc2C)cc1	0.3	59.9
CCC(=O)Nc1ccc(C)cc1-c1nc2ccccc2n(CC(=O)Nc2ccccc2Cl)c1=O	0.9	-14.4
COc1ccc(C)cc1NC(=O)C(NS(=O)(=O)c1cccc2nsnc12)c1ccccc1 (stereo not given)	1.2	-3.8
Cc1ccccc1-c1nc(CN2CCC(C(=O)NC(C)C)CC2)c(C)o1	-0.1	4.5
O=C(CCCn1c(=O)c2cccn2c2ccccc21)Nc1cc(C(F)(F)F)ccc1Cl	1.6	6.9
